Compound activity (PubChem BioAssay)
ALR H2O2 inh = blocks human ALR sulfhydryl oxidase activity. purified ALR, DTT oxidation, H2O2 HRP-luminol luminescence. inhibition, % (concentration not given with the values). actives 3.8% (n = 290,000);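 active = mean and each replicate at 75% or more; inconclusive = only one of the two met; inactive = neither met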;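 note: stock transfer was 7.5 nL into about 7.5 µL; 0% = neutral wells and 100% = wells with inactivated enzyme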
Target sequence (P55789 whole entry, looked up): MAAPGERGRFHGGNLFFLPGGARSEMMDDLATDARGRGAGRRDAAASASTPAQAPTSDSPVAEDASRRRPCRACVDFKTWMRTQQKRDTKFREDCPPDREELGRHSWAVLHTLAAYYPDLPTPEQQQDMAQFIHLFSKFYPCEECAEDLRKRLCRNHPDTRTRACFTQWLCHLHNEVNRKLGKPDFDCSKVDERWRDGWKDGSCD
RanGTP-Impb inh = inhibitors of RanGTP-importin-beta interaction, primary screen, biochemical, FRET, CFP-Ran, YFP-importin-beta, homogeneous; actives 1.1% (n = 300,000); cell-free CFP-Ran/YFP-importin-beta FRET ratio; inhibition, % (concentration not given with the values);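 active = most replicates above 15%; inconclusive = exactly half above 15%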;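 note: 0% = DMSO wells and 100% = Ran loaded with GDP instead of GTP; wells of about 40 µL received 100 nL stock; the first replicate is given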
Calb FLC = affects C. albicans growth with fluconazole; C. albicans CaCi-2 (fluconazole-resistant clinical isolate) + fluconazole, Alamar Blue growth, 48 h; growth inhibition, % (no concentration beside the values); actives 0.57% (n = 300,000); AID 1979;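 active = most replicates above 75%; inconclusive = exactly half above 75%; inactive = most below 75%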;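 note: all wells also contain fluconazole at 8 µg/ml as a sub-toxic cotreatment; 0% = median of DMSO wells and 100% = median of geldanamycin control wells; wells of about 8 µL received 7.5 nL stock; the first replicate is given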
T cruzi inh = blocks replication of Trypanosoma cruzi. actives 1.4% (n = 300,000). AID 1885. inhibition, % (no concentration beside the values). T. cruzi beta-gal in NIH3T3, luminescence, 90 h;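 active = mean inhibition across valid replicates above about 55%, limit read from the data; inconclusive = mean below that limit but half or more replicates reach it; inactive = mean below it, under half of replicates reach it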;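 note: signal also drops with host cell toxicity which is not excluded here; 0% = plate median of DMSO wells and 100% = zero luminescence signal; higher percent means less beta-gal luminescence so fewer parasites; stock transfer was 50 nL into about 50 µL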
FGF22 binding = shifts melting point of recombinant human FGF22 | calls only at 9.99 µM | Q9HCT0 | AID 651658 | actives 1.5% (n = 340,000) | recombinant FGF22 thermal shift, SYPRO orange fluorescence; percent of sucrose octasulfate shift, DMSO zero;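 active = melting point raised past a set limit in the mean and every replicate; inconclusive = no clear call; three in four hits are not shown here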
Target sequence (Q9HCT0 whole entry, looked up): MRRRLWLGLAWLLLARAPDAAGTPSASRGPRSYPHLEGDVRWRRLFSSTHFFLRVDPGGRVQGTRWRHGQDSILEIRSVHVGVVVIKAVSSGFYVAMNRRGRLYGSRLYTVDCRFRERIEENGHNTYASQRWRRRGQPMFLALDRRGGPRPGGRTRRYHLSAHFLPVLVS
rRNA inh HTS = inhibitors of bacterial rRNA selective over humanized ribosomes | E. coli WT GFP vs humanized-ribosome RFP mutants, fluorescence, 24 h; stronger effect = lower value; DMSO median 0, no signal -100 | GFP signal change (wild-type ribosome), % (no concentration beside the values) | actives 1.6% (n = 350,000);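 active = significant combined selectivity score with lowered wild-type GFP, culture density cut under 30%, mutant RFP and density less affected; inactive = any of these conditions unmet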; note: one replicate is shown; some compounds called inactive have numbers as strong as hits
MLL AF4-AF9 inh = blocks AF4 peptide binding to human AF9. inhibition, % at 10 µM. actives 0.47% (n = 350,000). AlphaScreen, biotin-AF4 peptide binding to FLAG-AF9;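 active = every replicate reaching a set inhibition limit, whatever the replicate mean, cut at about 25% in these data; inconclusive = mean inhibition reaches that limit but some replicates miss it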;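 note: 0% = plate neutral control median and 100% = total signal loss; the record names both 10 and 1 µM as test concentration; the first replicate is given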
Target sequence (P42568 whole entry, looked up): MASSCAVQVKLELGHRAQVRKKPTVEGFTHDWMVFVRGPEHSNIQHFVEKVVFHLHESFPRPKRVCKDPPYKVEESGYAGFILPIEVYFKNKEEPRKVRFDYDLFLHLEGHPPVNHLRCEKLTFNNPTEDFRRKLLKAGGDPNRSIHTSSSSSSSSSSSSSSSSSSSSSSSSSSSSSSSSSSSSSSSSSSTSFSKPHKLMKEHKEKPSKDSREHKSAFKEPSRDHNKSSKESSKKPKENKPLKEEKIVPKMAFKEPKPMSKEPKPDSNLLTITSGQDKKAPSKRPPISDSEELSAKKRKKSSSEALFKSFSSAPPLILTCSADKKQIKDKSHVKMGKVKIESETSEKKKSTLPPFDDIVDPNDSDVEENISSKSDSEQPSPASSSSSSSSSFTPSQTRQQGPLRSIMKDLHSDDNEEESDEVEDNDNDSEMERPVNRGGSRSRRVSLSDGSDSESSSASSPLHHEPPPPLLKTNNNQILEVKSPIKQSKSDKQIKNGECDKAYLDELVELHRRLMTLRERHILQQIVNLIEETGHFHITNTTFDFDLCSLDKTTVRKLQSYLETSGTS
Beta apoptosis = blocks beta cell apoptosis | actives 0.8% (n = 300,000) | INS-1E cytokine-induced death, ATP luminescence, 48 h; percent of positive-control rescue, neutral wells zero | protection from apoptosis, % (test concentration not listed);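 active = all replicates at 75% or more, or half of them and the mean; inconclusive = half reach 75% but not the mean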;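 note: 0% = cytokine-treated negative control wells and 100% = positive control rescue; higher means more ATP so stronger rescue from cytokine killing; wells of about 40 µL received 100 nL stock; the first replicate is given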
rRNA inh HTS OD600 = second read-out of rRNA inh HTS, no call of its own (marks repeat the call); OD600 change, %; measured here: OD600 growth;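 optical density of the mix in the first replicate; 0 = DMSO median and -100 = no signal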
rRNA inh HTS RFP = further read-out of rRNA inh HTS, marked with its call; RFP signal change, %; measured here: RFP humanized mutant strains;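 first replicate; 0 = DMSO median and -100 = no signal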
Numbers without * were called inactive; i = inactive; ? = inconclusive; . = not tested or not shown.

Values run as follows: ALR H2O2 inh, RanGTP-Impb inh, Calb FLC, T cruzi inh, FGF22 binding, rRNA inh HTS, rRNA inh HTS OD600, rRNA inh HTS RFP, MLL AF4-AF9 inh, Beta apoptosis
COc1ccc(-c2nc3ncnn3cc2C)cc1F
    51, 0.6, 7, 8, ., 7, 4, 1.3, -11, -2
CSCCC(NC(=O)c1ccc(Cl)cc1)C(=O)OCC(=O)N1CCCC1=O (centres undefined)
    -4, -2.0, ., -11, i, 12, 18, -0.6, -8.3, 3
CCOc1ccc(CC(=O)N2CCN(c3ccc(N4CCOCC4)nn3)CC2)cc1OCC
    2, -1.4, -1, -2, i, 4, 4, 2.1, -20, -1
COc1cccc(N2CCN(Cc3nc(N)nc(Nc4ccccc4OC)n3)CC2)c1
    ., ?, 0, -1, ., ., ., ., ., -4
COc1cccc(CN2CC(C(=O)N3CCCC3)CCC2=O)c1 (centres undefined)
    -7, 5.1, 0, -8, i, 3, 5, -0.8, 1.6, -7
CC1(C)CC2CC(C)(CN2C(=O)COC(=O)CNC(=O)c2ccc(Cl)c(Cl)c2)C1 (centres undefined)
    4, 4.9, 5, -6, ., ., ., ., ., -4
Cc1ccc(NC(=S)N(CCN(C)C)C(C)c2ccco2)cc1C (centres undefined)
    7, -0.8, -3, -14, ., ., ., ., ., -8
Cc1c(NC(=O)C(C)SC(=S)N2CCCC2)c(=O)n(-c2ccccc2)n1C (centres undefined)
    3, ., ., ., i, 5, 1, -3.5, -1.6, -6
Cc1cccc(NC(=O)C2CCN(C(=O)c3ccc(Cl)cc3)CC2)n1
    -3, 1.8, -1, -13, i, -12, -1, 2.5, 3.1, -2
CC(=O)c1c(C)[nH]c(C(=O)COC(=O)CCSc2ccccc2)c1C
    2, 7.9, ?, -10, i, 0, -6, 1.2, -1.7, -11
Cc1ccc(C2(C(F)(F)F)N=C3Sc4cc(C)ccc4N3C(=O)N2)cc1 (centres undefined)
    -1, 2.3, -6, 5, ., ., ., ., ., 6
CCn1cc(/C=N/NC(=O)c2ccc(C#N)cc2F)c2ccccc21
    ., -1.0, -17, 16, ., ., ., ., ., 5
Cc1nc2cc(NC(=O)c3ccc(Cl)cc3)ccc2n1C
    ., 0.7, 15, 17, i, 0, 10, 0.6, -8.5, 10
COc1cccc(C(=O)Oc2ccc(N3C(=O)CCC3=O)c(C)c2)c1
    -8, 4.3, -3, -10, i, -4, 6, -5.0, -2.1, -3
COc1cc2c(cc1NC(=O)CN1C(=O)NC3(CCc4ccccc43)C1=O)oc1ccccc12 (centres undefined)
    -3, -3.8, 27, 33, ., ., ., ., ., 9
CCOC(=O)c1cc2sccc2n1CC(=O)C(C)(C)C
    -7, -1.9, 1, -7, i, 13, 14, 0.6, 1.2, 1
Cc1cc(-c2nnc(SCC(=O)Nc3ccc(Br)cc3F)n2N)n[nH]1
    -1, 1.5, -3, -4, i, -1, 8, -1.6, 1.0, -3
O=C(O)Cn1nc(-c2ccc(F)cc2)oc1=O
    -11, -3.1, -12, 4, ., ., ., ., ., 0
OC(CN1CCN(c2ncc(C(F)(F)F)cc2Cl)CC1)c1ccccc1 (centres undefined)
    4, -2.1, 4, 14, i, -41, -74, -19, -1.6, -2
Cc1nnc2ccc(-c3cccc(NS(=O)(=O)c4ccccc4Cl)c3)nn12
    -10, -3.0, 9, 17, i, 15, 11, -2.5, -1.3, 5

Three entries from above, reformatted:
Compound,ALR H2O2 inh,RanGTP-Impb inh,Calb FLC,T cruzi inh,FGF22 binding,rRNA inh HTS,rRNA inh HTS OD600,rRNA inh HTS RFP,MLL AF4-AF9 inh,Beta apoptosis
Cc1nc2cc(NC(=O)c3ccc(Cl)cc3)ccc2n1C,.,0.7,15,17,i,0,10,0.6,-8.5,10
COc1cccc(C(=O)Oc2ccc(N3C(=O)CCC3=O)c(C)c2)c1,-8,4.3,-3,-10,i,-4,6,-5.0,-2.1,-3
COc1cc2c(cc1NC(=O)CN1C(=O)NC3(CCc4ccccc43)C1=O)oc1ccccc12 (centres undefined),-3,-3.8,27,33,.,.,.,.,.,9

Additional records.
Values run as follows: ALR H2O2 inh, RanGTP-Impb inh, Calb FLC, T cruzi inh, FGF22 binding, rRNA inh HTS, rRNA inh HTS OD600, rRNA inh HTS RFP, MLL AF4-AF9 inh, Beta apoptosis
CCOc1ccc(NS(=O)(=O)c2ccc(NC(=O)C3CCCO3)cc2)cc1 (centres undefined)
    -15, ?, 1, -12, ., ., ., ., ., -12
Cc1[nH]n(S(=O)(=O)Cc2ccccc2)c(=O)c1N=Nc1ccccc1Cl
    30, -2.3, 39, 12, i, -1, 25, -0.3, -1.6, 4
Cn1nc(C(=O)Nc2ccc(-n3cnnn3)cc2)c2ccccc2c1=O
    -4, ., ., ., ., -5, 0, -2.0, -6.0, 5
CC(C)c1ccc(N(C(=O)c2cc3ccccc3oc2=O)C2C=CS(=O)(=O)C2)cc1 (centres undefined)
    -20, ?, 4, -16, i, 4, -19, 4.6, -9.6, -9
CCN1C(=NCc2ccco2)N[C@@H](c2cccc(C(F)(F)F)c2)C(C(=O)OC)=C1C
    -6, ., ., ., i, 8, -16, 16, -2.5, -3
Cc1cc(SCc2ccc(Br)cc2)nc(=O)[nH]1
    ., -2.4, -15, -8, i, -12, 13, 0.9, 0.0, -2
O=C(CSc1nnc(CNC(=O)c2c(F)cccc2Cl)o1)NCCc1ccccc1
    -18, 0.7, 3, -5, i, 4, 10, -0.6, -9.6, -7
Cc1nc(Nc2ccccc2)sc1C
    99*, -4.4, -15, -10, i, 11, 5, 1.3, 1.4, -3
COc1cc(OC)c2ccc(=O)oc2c1C(CCN1CCCC1)c1ccc2c(c1)OCO2 (centres undefined)
    ., 4.4, -10, 25, i, 6, -1, -1.1, 11, 2
Cc1ccc(O)c(/C=N/NC(=O)COc2ccc3c(C)cc(=O)oc3c2)c1
    ., -1.1, -4, 1, i, -1, 8, 0.7, -0.7, -4
Cc1cccc(NC(=O)CO/N=C/c2ccc3c(c2)OCO3)c1
    ., -0.4, 1, 2, ., ., ., ., ., -5
Cc1cccc2cc(CN(Cc3cccnc3)C(=O)c3ccccc3F)c(Cl)nc12
    6, ?, 6, 61*, ., ., ., ., ., -2
CCn1c(SCC(=O)Nc2ccc(NC(=O)c3cccs3)cc2)nnc1-c1cccnc1
    4, -0.4, -2, 1, ., ., ., ., ., 2
CCCOc1ccc(C2NC(=O)NC2=O)cc1 (centres undefined)
    -5, ?, -5, -19, ., ., ., ., ., -3
CCN(CC)C(=O)C(Sc1nnnn1-c1ccc(O)cc1)c1ccccc1 (centres undefined)
    1, 1.7, 2, 14, i, -12, -22, 4.7, 1.7, -4
COc1ccc(CCNC(=O)CCOc2cc(C)ccc2C)cc1OC
    -12, -3.8, -9, 13, i, 4, -7, -2.3, 1.1, -8
COc1ccc(NC(=O)COc2ccc(/C=N/n3c(C)nnc3C)cc2OC)cc1
    2, -0.8, -1, 0, ., -4, -8, -0.9, ., 1
CSc1ccccc1C(=O)Nc1ccc(S(=O)(=O)NC2=NCCCCC2)cc1
    1, ., ., ., i, -2, -2, -1.4, 1.1, -3
O=c1cnnc(N/N=C/c2ccc3c(c2)OCO3)[nH]1
    2, 2.7, -5, 5, i, 38, 16, 0.1, -4.9, -2
O=C(CSc1nnc(-c2ccco2)n1Cc1ccccc1)c1ccc(F)cc1
    ., -0.6, -1, 9, ., ., ., ., ., -1

Single entries from above:
CC(C)c1ccc(N(C(=O)c2cc3ccccc3oc2=O)C2C=CS(=O)(=O)C2)cc1 (centres undefined) – MLL AF4-AF9 inh: -9.6
COc1cc(OC)c2ccc(=O)oc2c1C(CCN1CCCC1)c1ccc2c(c1)OCO2 (centres undefined) – rRNA inh HTS: 6

Continuation:
Values run as follows: ALR H2O2 inh, RanGTP-Impb inh, Calb FLC, T cruzi inh, FGF22 binding, rRNA inh HTS, rRNA inh HTS OD600, rRNA inh HTS RFP, MLL AF4-AF9 inh, Beta apoptosis
Cc1cccc(C(=O)NNC(=O)c2ccccc2)c1
    -29, 7.8, -3, -15, ., ., ., ., ., 0
CC(=O)O[C@]1(C(C)=O)CCC2C3C=C(C)C4=CC(=O)CC[C@]4(C)C3CC[C@@]21C (some centres undefined)
    -67, 0.0, -6, 16, i, -22, -38, 3.8, 9.5, 4
Cc1cc(C)nc(SCC(=O)Nc2ccccc2[N+](=O)[O-])n1
    -2, -1.7, 8, -14, ., ., ., ., ., 0
Cc1ccc(S(=O)(=O)NN/C(=N/S(=O)(=O)c2ccccc2)c2ccccc2)cc1
    23, -4.3, 4, 2, i, -8, -12, -5.4, -1.2, 3
CCN(CC)S(=O)(=O)c1cc(NS(=O)(=O)c2cc(Cl)ccc2Cl)ccc1C
    -2, 1.0, 17, 9, i, -11, -2, 1.7, 5.4, 4
O=C(Nc1cccc2ncccc12)C(c1ccccc1)c1ccccc1
    -3, -1.6, 2, -10, ., 12, 3, 0.2, -0.5, 3
CCN1CCN(C(=O)N(Cc2ccc(Cl)cc2)S(=O)(=O)c2ccc(C)cc2)CC1
    -2, 9.8, -7, 6, i, 1, 7, -2.2, -2.5, -2
O=C(N/N=C/c1ccc(Cl)cc1Cl)c1n[nH]c2c1CCCC2
    -5, -1.3, 1, 0, ., ., ., ., ., 10
COc1cccc(NC(=O)C(C)NS(=O)(=O)c2ccc(Br)cc2)c1 (centres undefined)
    1, 4.7, -7, 3, i, -5, -10, 2.3, -1.2, -2
CC1(C)CC2CC(C)(CN2C(=O)COC(=O)c2cc(Cl)cc(Cl)c2N)C1 (centres undefined)
    -18, -1.0, -13, 40, i, 15, 18, -2.3, 6.8, 9
CN1CCN(c2nc3c(c(=O)n(C)c(=O)n3C)n2Cc2ccccc2Cl)CC1
    3, -1.6, -12, -1, i, 24, 4, 0.0, -3.8, .
CCN(CC)S(=O)(=O)c1ccc(C(=O)NNC(=O)C2CCN(S(=O)(=O)c3ccc(Cl)cc3)CC2)cc1
    -2, -1.6, -1, -7, ., ., ., ., ., 1
COC(=O)CCCn1nc(NC(=O)c2ccco2)cc1C
    -4, -1.9, -10, -3, i, 13, 10, 0.7, -4.9, .
Cc1nc(SCC(=O)OCc2ccccc2)c2c(=O)n(C)c(=O)n(C)c2n1
    ., 1.6, 9, -21, i, 4, 5, -2.6, 6.0, 1

A portion of the library; the hit share may differ from the screen's.
